Source: PubChem
HIV Env fusion = HIV envelope-mediated fusion inhibition. inhibition, % at 12.3 µM. 360,000 compounds, 1.1% hits. HeLa-JRFL Env/CEM21 cell fusion, luciferase;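 active means mean replicate inhibition score of at least 50 and every replicate individually at or above 50; inconclusive means only one of the two criteria met; inactive means mean below 50 and not all replicates reaching 50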;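 further: 0% = plate neutral controls and 100% = maraviroc near 300 nM; one replicate is shown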
PABP polyA inh = blocks human PABP binding to poly(A) RNA; P11940; inhibition, % at 35 µM; fluorescence polarization; AID 2014; 290,000 compounds, 1% hits;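 active means 50% or more with normal probe brightness, or confirmed in later tests; inconclusive means above 50% with abnormal brightness, or retests that disagree; inactive means below 50% or failed in later tests; about a fifth of its hits are not listed in these tables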;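 further: calls also rest on retests at 20 µM and on dose response follow-up; controls were probe without protein and protein plus probe with vehicle; some compounds called inactive have numbers as strong as hits; many hits fall short of the cut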
Target sequence (P11940 whole entry, looked up): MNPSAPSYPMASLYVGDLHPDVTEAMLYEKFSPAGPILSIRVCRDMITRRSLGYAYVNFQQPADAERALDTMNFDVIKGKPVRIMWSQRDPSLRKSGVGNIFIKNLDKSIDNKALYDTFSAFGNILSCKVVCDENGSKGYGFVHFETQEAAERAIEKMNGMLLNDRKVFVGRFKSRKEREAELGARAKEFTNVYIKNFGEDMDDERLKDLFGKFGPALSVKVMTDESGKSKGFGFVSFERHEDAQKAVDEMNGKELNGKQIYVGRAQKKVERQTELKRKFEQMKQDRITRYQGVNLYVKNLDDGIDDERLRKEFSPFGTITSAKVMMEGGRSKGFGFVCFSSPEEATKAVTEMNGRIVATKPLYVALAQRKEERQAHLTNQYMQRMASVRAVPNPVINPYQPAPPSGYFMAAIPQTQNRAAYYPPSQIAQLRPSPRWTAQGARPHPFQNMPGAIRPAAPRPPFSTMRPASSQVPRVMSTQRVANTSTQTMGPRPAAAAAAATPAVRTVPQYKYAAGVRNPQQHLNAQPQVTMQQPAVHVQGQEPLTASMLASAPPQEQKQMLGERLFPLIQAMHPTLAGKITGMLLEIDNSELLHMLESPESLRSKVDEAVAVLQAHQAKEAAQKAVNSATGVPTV
MT1-MMP act inh = blocks activation of human MT1-MMP; GFP/RFP ratio change, % at 20 µM; 360,000 compounds, 0.061% hits; HT1080 RFP-PRO-GFP cells, GFP/RFP ratio fluorescence, overnight; percent of plate control window, DMSO zero; P50281;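 active means GFP/RFP ratio change of at least 30% with cell ATP level not reduced by more than half and red fluorescence within 50% of control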; further: strong numbers were not always called active
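Read-out: GFP/RFP fluorescence ratio; Test system: RFP-PRO-GFP reporter HT1080 cells; Compound dosing: single-point 20 µM compound, 1% DMSO; Times: overnight compound exposure at 37 °C.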
CSC inhib = cancer stem cell inhibition. cancer stem cell-like cells viability, luminescence. inhibition, % at 7.5 µM. 300,000 compounds, 1.1% hits. AID 2717;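 active means mean at 75% or more and at least half the replicates too; inconclusive means mean and replicates disagree; tested in HMLE shEcad cells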;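 further: 0% = median of negative and 100% = median of positive control wells; the first replicate is given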
eIF4H FP inh = inhibitors of RNA binding by human eIF4H; inhibition, % at 35 µM; Q15056; AID 2012; 290,000 compounds, 0.94% hits; eIF4H fluorescence polarization binding assay;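 active means 50% or more with normal probe brightness, or confirmed in later tests; inconclusive means above 50% with abnormal brightness, or retests that disagree; inactive means below 50% or failed in later tests; about a fifth of its hits are not listed in these tables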;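 further: calls also rest on retests at 20 µM and on dose response follow-up; 0% = protein and probe with vehicle and 100% = probe without protein; strong numbers were not always called active; many hits fall short of the cut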
UUG fidelity = modulators of start codon recognition fidelity in yeast. S. cerevisiae UUG-firefly luciferase reporter, luminescence/redox ratio. activity score, % at 18.7 µM. 350,000 compounds, 0.13% hits;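 active means replicate mean at a twofold rise or more, about +100% in these data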;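 further: firefly luciferase made from a UUG start codon reports start codon fidelity; reporter light over untreated wells divided by growth signal over untreated wells; some hits fall short of that in this replicate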
Rce1 inh = yeast Ras-converting enzyme inhibition | Q03530 | calls only | yeast membranes, quenched prenylated peptide cleavage fluorescence | 290,000 compounds, 0.27% hits;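 active means fall in fluorescence gain of 50% or more versus controls, with final raw signal at or below 3038400; inconclusive means same 50% fall but final raw signal above 3038400; inactive means fall in fluorescence gain under 50%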;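 further: plate controls were neutral control wells for no effect and wells lacking membranes for full effect; tested at 10 µM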
eIF4H FP inh retest = second read-out of eIF4H FP inh, no call of its own (marks repeat the call); inhibition, %; compound at 20 µM; confirmation average;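 mean of two retest wells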
PABP polyA inh retest = also measured in PABP polyA inh; calls as there; inhibition, %; compound at 20 µM; confirmation repeats;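 mean of two retest wells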
MT1-MMP act inh RFP = also measured in MT1-MMP act inh; calls as there; RFP signal change, %; measured here: RFP expression control read;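 0 = vehicle wells; hits needed this value within 50% of zero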
* hit, by the source's call; i = inactive; u = inconclusive; x = no result given; + = active, no number.

SMILES	HIV Env fusion	PABP polyA inh	MT1-MMP act inh	MT1-MMP act inh RFP	CSC inhib	eIF4H FP inh	UUG fidelity	Rce1 inh	others
COc1ccc(-c2cc(NC=O)c3ncc(-c4ccccc4)n3c2)cc1OC	4	x	-6	-1	x	x	-3	x
COc1cc(CC(=O)N/N=C/c2ccc([N+](=O)[O-])cc2)c([N+](=O)[O-])cc1OC	-1	0	1	-1	13	-4	x	i
CCCCCn1c(Sc2nc3ccccc3s2)nc2c1c(=O)[nH]c(=O)n2C	x	-5	-8	-10	-6	-6	-8	i
CCCCc1cc(=O)oc2c(CN(CC)CC)c(O)c(Cl)cc12	x	8	1	0	-6	-4	-4	u
COCCn1c(SCC(=O)NC(=O)NC(C)C)nc2ccccc21	x	-5	3	5	-4	4	x	x
Cc1cc(-c2csc(NC(=O)c3ccc(C#N)cc3)n2)c(C)n1Cc1ccccc1	-37	4	0	5	2	11	x	i
CN(CCO)C(=O)c1cccc2c1-c1ccccc1C2=O	x	0	-6	3	-5	-4	-19	i
O=C(O)c1ccc(NC(=O)C2C3CCC(O3)C2C(=O)O)cc1 (stereo not given)	-4	18	4	6	2	1	-14	i
CN(CC(=O)NCCN1CCN(Cc2ccccc2)CC1)S(=O)(=O)c1cccc2nsnc12	-13	4	-4	-3	33	-10	-17	i
CCCN(C(=O)c1cc(S(=O)(=O)N(C)c2ccc(OCC)cc2)ccc1C)C1CCS(=O)(=O)C1 (stereo not given)	5	x	-3	-2	-13	x	1	x
CCCCOc1ccc(S(=O)(=O)Nc2cc(OC)ccc2OC)cc1	x	-7	6	-14	15	-11	-5	x
O=[N+]([O-])c1cccc(-n2cccc2/C=N/Nc2nc(N3CCCCC3)nc(N3CCCCC3)n2)c1	-4	0	-2	-8	-1	-10	x	i
N#Cc1ccc(C23CC4(C2)[C@H](CN(P(=O)(c2ccccc2)c2ccccc2)[C@@H]4c2ccccc2)C3c2ccc(Cl)nc2)cc1 (stereo not given in full)	x	-3	-13	-10	44	-10	-14	i
Cc1ccc(-c2cc(C(=O)Nc3cc(C)on3)c3ccccc3n2)cc1	-28	6	-4	2	3	4	x	i
CC(/C=C1\SC(=O)N(CC(=O)Nc2cccc(O)c2)C1=O)=C\c1ccccc1	-17	-4	1	-1	117*	-1	x	i
C[C@@H](O)c1nc2ccccc2n1N	-19	0	-2	2	-20	-1	x	i
Cc1cc(O)c(C)c(O)c1/C=N/NC(=O)c1cccnc1	20	10	0	0	46	4	5	i
O=C(CCNC(=O)c1ccccc1Cl)NC1=NCCS1	-1	-4	5	4	1	0	-5	i
CCOC(=O)c1c(NC(=S)Nc2ccccc2)sc2c1CCN(CCc1ccccc1)C2	x	u	x	x	0	u	x	x
Fc1ccc(C2=CSC3=NCCN23)cc1	2	5	0	3	-1	3	x	i
CCOC(=O)c1cc2c(ccn2-c2ccc(F)cc2)n1CC(=O)N1CCN(C(=O)c2ccco2)CC1	-42	-3	12	13	5	-2	-12	i
CNC(=S)N(CCc1c(C)[nH]c2ccccc12)Cc1ccco1	0	-8	-2	0	-12	2	x	i
Cc1cc(C)nc(-n2nc(C)cc2NC(=O)c2ccc(S(=O)(=O)N3CCOCC3)cc2)n1	x	-2	x	x	-9	-17	x	x
CC1=CC(C)(C)N(C(=O)CN2C(=O)c3ccccc3C2=O)c2ccccc21	x	-9	1	5	0	11	-1	i

Entries from the list above that contain an NH in an aromatic ring, in the order listed:
SMILES	HIV Env fusion	PABP polyA inh	MT1-MMP act inh	MT1-MMP act inh RFP	CSC inhib	eIF4H FP inh	UUG fidelity	Rce1 inh	others
CCCCCn1c(Sc2nc3ccccc3s2)nc2c1c(=O)[nH]c(=O)n2C	x	-5	-8	-10	-6	-6	-8	i
CNC(=S)N(CCc1c(C)[nH]c2ccccc12)Cc1ccco1	0	-8	-2	0	-12	2	x	i

(continued)
SMILES	HIV Env fusion	PABP polyA inh	MT1-MMP act inh	MT1-MMP act inh RFP	CSC inhib	eIF4H FP inh	UUG fidelity	Rce1 inh	others
COc1ccc(NC(=O)C2Cc3c(-c4ccc(NC(C)=O)cc4)ccnc3O2)cn1 (stereo not given)	7	x	-3	-7	x	x	2	x
O=C(N/C(=C/c1ccc2c(c1)OCO2)C(=O)N1CCOCC1)c1cccs1	-58	-8	-1	4	-6	-7	-22	i
CCC(COC)NC(=O)CCc1nnc(Cc2cccc(C(F)(F)F)c2)o1 (stereo not given)	-20	-12	-4	-2	11	0	-4	+
CN(C)C(CNc1ncnc2sc3c(c12)CCCCC3)c1ccco1 (stereo not given)	12	-9	2	-4	-21	31	x	i
CCN(CC(=O)Nc1ccccc1OC)C(=O)CSCc1ccc(C)cc1	11	x	-2	0	18	x	-1	x
CN1CCC(N(C)CC(=O)Nc2cccc(Oc3ccccc3)c2)CC1	-25	0	-3	3	53	-1	-3	i
O=C(CSc1nnc(Nc2ccccc2)s1)NCc1ccco1	-33	1	7	1	-9	8	-18	i
O=C(/C=C/c1ccc(-c2ccccc2)o1)c1ccccc1	-48	2	-6	3	19	49	x	i
CC1CC(C)CN(S(=O)(=O)c2ccc(C(=O)NCCCn3ccnc3)cc2)C1 (stereo not given)	x	0	0	4	101*	6	-13	i
C=CCN1C(=O)C(O)(CC(=O)c2ccc(Cl)cc2)c2ccccc21 (stereo not given)	x	1	-3	-1	10	2	x	i
CNc1nc2c(c(=O)n(C)c(=O)n2C)n1CCCc1ccccc1	8	-4	-1	-25	-19	-9	-6	i
O=C(Nc1ccc(Cl)cc1)c1csc(COCCO)n1	-19	x	2	-14	x	x	-15	x
Cc1cccc(S(=O)(=O)NC(=O)C2(C)CCN2C(=O)Cc2cccs2)c1 (stereo not given)	-1	x	5	7	x	x	1	x
O=C(CSc1nc2ccccc2[nH]1)c1ccc(Cl)s1	x	40	0	7	12	4	x	i
CC(C)(C)c1ccc(S(=O)(=O)NCCOCC(F)(F)C(F)F)cc1	x	1	7	-7	-6	-7	3	i
NS(=O)(=O)OCCCc1ccc(C(F)(F)F)cc1	-6	2	6	-1	-2	-9	-8	i
O=c1c(-c2ccccc2)nnc2sc(COc3ccc(Br)cc3)nn12	5	5	-6	1	2	-1	-5	i
Cc1nc2ccccc2c(=O)n1C1CCCCCC1	x	3	1	3	1	4	2	i
CN1C(=O)C2(C(C#N)=C(N)N(c3cc(Cl)cc(Cl)c3)C3=C2C(=O)CCC3)c2ccccc21 (stereo not given)	x	2	-1	0	x	1	1	i
CC(C)Oc1ccc(C(CC(=O)O)Cc2ccccc2)cc1 (stereo not given)	17	0	-2	0	-3	7	-3	i
Nc1ccc2ncccc2c1N	-18	0.7*	-36	3	43	87*	-1	x	eIF4H FP inh retest=92*;PABP polyA inh retest=63*
CC(C)CCCNc1nc(N2CCOCC2)nc(N2CCOCC2)n1	7	-9	0	-4	-8	-4	-19	i
Cc1nc(CCNC(=O)Cc2ccc(Cl)cc2)cs1	x	-2	1	7	0	6	-8	i
CCN(CC)S(=O)(=O)c1ccc(N2CC(C(=O)NC3(C)CCS(=O)(=O)C3)CC2=O)cc1 (stereo not given)	-15	x	-1	3	-5	x	-3	x
Cc1nn(-c2ccccc2)c(Cl)c1/C=N/NC(N)=O	u	6	3	5	8	2	-13	i
N#Cc1ccccc1NC(=O)CN1C(=O)NC2(CCCC2)C1=O	-2	14	1	4	-5	5	-15	i
C/C=C1\COC(C(=O)NCc2ccccc2)(C(F)(F)F)C=C1C=C(C)C (stereo not given)	4	x	2	-4	x	x	-5	i
COc1ccc2c(c1)CC(C1(O)C(=O)N(C)c3ccccc31)C2=O (stereo not given)	x	-10	4	2	-12	-6	-12	x
CN(Cc1cccs1)C(=O)COC(=O)CNC(N)=O	-9	4	-1	-1	x	-14	x	i
CCOC(=O)c1[nH]c2ccc(Cl)cc2c1NC(=O)/C=C/c1ccc2c(c1)OCO2	x	2	-1	1	-13	-1	x	i
CC(=O)c1ccccc1NC(=O)COc1ccc(N(C)S(=O)(=O)c2ccc(C)c(C)c2)cc1	x	x	2	-10	-9	x	5	x
CC(C)c1cc(C(=O)Nc2cccnc2)no1	x	-2	0	5	5	0	-23	i
COc1ccc(S(=O)(=O)N(C)C2CCN(C)CC2)cc1	-55	-2	1	3	-5	2	6	i

Filtered by structure, the compounds so far containing two or more sulfur atoms
SMILES	HIV Env fusion	PABP polyA inh	MT1-MMP act inh	MT1-MMP act inh RFP	CSC inhib	eIF4H FP inh	UUG fidelity	Rce1 inh	others
CCCCCn1c(Sc2nc3ccccc3s2)nc2c1c(=O)[nH]c(=O)n2C	x	-5	-8	-10	-6	-6	-8	i
CN(CC(=O)NCCN1CCN(Cc2ccccc2)CC1)S(=O)(=O)c1cccc2nsnc12	-13	4	-4	-3	33	-10	-17	i
CCCN(C(=O)c1cc(S(=O)(=O)N(C)c2ccc(OCC)cc2)ccc1C)C1CCS(=O)(=O)C1 (stereo not given)	5	x	-3	-2	-13	x	1	x
CCOC(=O)c1c(NC(=S)Nc2ccccc2)sc2c1CCN(CCc1ccccc1)C2	x	u	x	x	0	u	x	x
O=C(CSc1nnc(Nc2ccccc2)s1)NCc1ccco1	-33	1	7	1	-9	8	-18	i
Cc1cccc(S(=O)(=O)NC(=O)C2(C)CCN2C(=O)Cc2cccs2)c1 (stereo not given)	-1	x	5	7	x	x	1	x
O=C(CSc1nc2ccccc2[nH]1)c1ccc(Cl)s1	x	40	0	7	12	4	x	i
CCN(CC)S(=O)(=O)c1ccc(N2CC(C(=O)NC3(C)CCS(=O)(=O)C3)CC2=O)cc1 (stereo not given)	-15	x	-1	3	-5	x	-3	x

Hits appear at their usual frequency, and some 2.9% of all compounds hit somewhere here.
